Screens: PubChem BioAssay, several laboratories
Beta2AR agonist: beta2AR agonists driving receptor internalization, primary screen, cell-based, FAP fluorogen, flow cytometry | Beta-2 adrenergic receptor (Homo sapiens), P07550 | Am2.2-beta2AR cells; reference of the scale not given here | response, % (no concentration beside the values) | hit rate 0.43% among 340,000 | AID 504454, 2011;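 active means response above a set limit, near 3 SD of response in nonfluorescent compounds, cut at about 42% in these data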;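 further: stock transfer was 100 nL into about 11 µL; a reference agonist was the positive control; negative values mostly stem from fluorescent compounds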
Ecoli growth: E. coli growth inhibition, primary screen, OD600; Escherichia coli growth, 23 h; active compounds read low; AID 1053175, 2014; OD600 absorbance (concentration not given with the values); hit rate 0.21% among 330,000;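 active means OD600 absorbance below the run mean of sample wells minus 3.6 SD, in any replicate, cut at about 0.56 in these data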;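 further: stock transfer was 300 nL into about 60 µL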
HNF4A DNA FP: change in binding of human HNF4A to DNA, primary screen, biochemical, fluorescence polarization, FITC-DNA; 1 h; activity change, % at 10 µM; hit rate 0.3% among 360,000; AID 1224865, 2016; in the data active means activity change above about 30%, passing the limit was not always enough;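 further: controls were the assay level and a saturating level of protein; the project sought stronger binding though the title names inhibitors; some compounds called inactive have numbers as strong as hits; positive values seem to mean higher polarization but the record does not say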
Ecoli rRNA inh: reduced GFP signal of wild-type E. coli, primary screen, bacterial rRNA inhibitor project, GFP/RFP fluorescence, OD600, single point. hit rate 1.6% among 350,000. GFP signal change (wild-type ribosome), % (concentration not given with the values). E. coli WT GFP vs humanized-ribosome RFP mutants, 24 h; active compounds read low; DMSO median 0, no signal -100. AID 720706, 2013;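 active means significant combined selectivity score with lowered wild-type GFP, culture density cut under 30%, mutant RFP and density less affected; inactive means any of these conditions unmet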; further: one replicate is shown; some compounds called inactive have numbers as strong as hits
UCH37 inh: inhibitors of human UCH37 deubiquitinase, primary screen, biochemical, Ub-AMC cleavage, fluorescence; hit rate 0.33% among 330,000; inhibition, % (test concentration not listed); AID 588478, 2011; purified proteasome/UCH37;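 active means mean of two replicates above 20%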;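 further: 0% = compound-free wells with enzyme and 100% = wells lacking proteasome; stock transfer was 100 nL into about 20 µL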
Target sequence (Q9Y5K5 whole entry, looked up): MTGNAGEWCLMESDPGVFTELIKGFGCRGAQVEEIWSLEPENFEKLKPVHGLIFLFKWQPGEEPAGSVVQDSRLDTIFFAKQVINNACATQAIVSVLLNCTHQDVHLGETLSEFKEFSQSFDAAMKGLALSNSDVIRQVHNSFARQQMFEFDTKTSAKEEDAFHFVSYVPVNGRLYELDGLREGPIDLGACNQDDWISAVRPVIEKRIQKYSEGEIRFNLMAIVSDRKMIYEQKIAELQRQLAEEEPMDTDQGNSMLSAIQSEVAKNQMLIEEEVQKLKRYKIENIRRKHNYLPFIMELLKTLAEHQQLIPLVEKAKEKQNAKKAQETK
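Signal – fluorescence, ex 355 nm, em 460 nm · System – Proteasome-bound UCH37 · Input – 0.15 nM proteasome as dispensed · Timing – 30 min preincubation with enzyme, 25 min cleavage at room temperature · Read-out basis – percent inhibition of cleavage signal versus uninhibited and no-proteasome wells · Medium – Tris-HCl pH 7.4 with ATP-MgCl2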
ALR H2O2 inh: inhibitors of human ALR sulfhydryl oxidase, primary screen, biochemical, H2O2 detection, HRP-luminol luminescence, single point; FAD-linked sulfhydryl oxidase ALR (Homo sapiens), P55789; purified ALR, DTT oxidation; inhibition, % (no concentration beside the values); hit rate 3.8% among 290,000;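 active means mean and each replicate at 75% or more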;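 further: stock transfer was 7.5 nL into about 7.5 µL; 0% = neutral wells and 100% = wells with inactivated enzyme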
Target sequence (P55789 whole entry, looked up): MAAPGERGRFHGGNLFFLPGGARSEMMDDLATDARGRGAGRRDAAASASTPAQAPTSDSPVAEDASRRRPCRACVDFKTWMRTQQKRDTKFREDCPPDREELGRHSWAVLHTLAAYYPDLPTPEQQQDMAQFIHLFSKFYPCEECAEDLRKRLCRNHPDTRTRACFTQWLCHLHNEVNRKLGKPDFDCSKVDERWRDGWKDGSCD
FGF22 binding: binders of human FGF22 protein, primary screen, FGF22 synaptogenesis inhibitor project, biophysical, thermal shift, single point. Fibroblast growth factor 22 (Homo sapiens), Q9HCT0. recombinant FGF22 thermal shift, SYPRO orange fluorescence; percent of sucrose octasulfate shift, DMSO zero. calls only at 9.99 µM. hit rate 1.5% among 340,000. AID 651658, 2012;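 active means melting point raised past a set limit in the mean and every replicate; three in four hits are not shown here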
Target sequence (Q9HCT0 whole entry, looked up): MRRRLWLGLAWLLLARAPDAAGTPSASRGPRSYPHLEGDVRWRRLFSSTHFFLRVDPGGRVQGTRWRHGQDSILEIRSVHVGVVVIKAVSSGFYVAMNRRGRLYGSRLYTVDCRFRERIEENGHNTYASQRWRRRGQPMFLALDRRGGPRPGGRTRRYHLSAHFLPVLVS
Ecoli rRNA inh OD600: second read-out of Ecoli rRNA inh, no call of its own (marks repeat the call); OD600 change, %; measured here: OD600 growth;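 optical density of the mix in the first replicate; 0 = DMSO median and -100 = no signal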
Ecoli rRNA inh RFP: recorded beside Ecoli rRNA inh, whose call it bears; RFP signal change, %; measured here: RFP humanized mutant strains;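 first replicate; 0 = DMSO median and -100 = no signal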
* = called active by the depositor; i = inactive; x = no result given.

Sequence of screens: Beta2AR agonist	Ecoli growth	HNF4A DNA FP	Ecoli rRNA inh	Ecoli rRNA inh OD600	Ecoli rRNA inh RFP	UCH37 inh	ALR H2O2 inh	FGF22 binding
#1 Cc1ccc2c(c1)P(=O)(O)c1cc(C)ccc1O2
 : -2.3	x	2.7	3.3	13.6	-1.3	x	x	i
#2 N#CC1(C#N)C(C(=O)C23CC4CC(CC(C4)C2)C3)C12CCOCC2 (stereo unspecified)
 : 6.3	0.721	-3.5	4.3	-1.7	-1.7	-1.5	-0.8	i
#3 Cc1ccc(NC(=O)C2COc3ccccc3O2)c(C)c1 (stereo unspecified)
 : -4.5	0.67	-1.0	-11.5	-11.7	-2.5	0.5	x	i
#4 CN(Cc1cn(Cc2ccc(F)cc2)nn1)C1CN(Cc2cn(Cc3ccc(F)cc3)nn2)S(=O)(=O)C1 (stereo unspecified)
 : x	x	-1.8	-3.1	-4.9	2.0	x	x	i
#5 CC1(OC(=O)C2CCCC2)C(=O)C=C2C=C(c3ccsc3)N(C3CC3)C=C2C1=O (stereo unspecified)
 : 1.4	0.674	-1.4	13.4	19.4	22.4	1.2	x	i
#6 O=C(O)CC1c2ccccc2CCN1S(=O)(=O)c1cccs1 (stereo unspecified)
 : -2.7	0.647	-1.0	x	x	x	2.5	-2.4	i
#7 CC(C)N1CC(O)=C(c2nc3ccccc3c(=O)[nH]2)C1=N
 : -1.1	0.735	3.4	x	x	x	-59.8	x	x
#8 COc1cc(COCC(O)CN2CCOCC2)cc(OC)c1OC (stereo unspecified)
 : 0.8	0.782	0.7	x	x	x	1.5	2.8	x
#9 CC(NC(=O)C1CCCN1S(=O)(=O)c1ccccc1)c1ccccc1 (stereo unspecified)
 : -11.0	0.711	-0.6	7.2	8.7	-1.0	-0.4	-4.6	i
#10 CCN(CC)S(=O)(=O)c1ccc(N2CC(C(=O)NCc3cccnc3)CC2=O)cc1 (stereo unspecified)
 : 7.0	0.654	4.6	-0.1	5.5	-3.3	-2.9	9.5	i
#11 O=C1OCC/C1=C\c1ccccc1
 : 2.4	0.688	-3.3	x	x	x	-0.2	-6.8	x
#12 Cc1cc(C)cc(N=C(NO)c2cccc([N+](=O)[O-])c2)c1
 : 8.0	0.767	1.4	x	x	x	1.6	55.5	x
#13 Cc1cc(F)ccc1S(=O)(=O)N1CCCOC1CNC(=O)C(=O)NCCc1ccco1 (stereo unspecified)
 : x	x	-2.4	4.1	-4.8	-0.7	x	x	i
#14 Cc1cccc(-n2ccc(=O)c(C(=O)O)n2)c1
 : 0.1	0.727	-3.4	13.2	8.4	0.7	2.0	-2.3	i
#15 CC1CC1C(=O)Nc1nc2ccc(S(C)(=O)=O)cc2s1 (stereo unspecified)
 : 11.1	0.63	-1.3	-3.2	0.7	0.4	1.0	-6.5	i
#16 CC(C)CC(OC(=O)c1ccc(Cl)nc1)C(=O)NC1CCCC1 (stereo unspecified)
 : -11.2	0.7	2.3	9.4	8.6	4.9	5.5	-0.2	i
#17 O=C(COC(=O)/C=C/c1ccc(S(=O)(=O)N2CCOCC2)cc1)NCc1ccccc1
 : -2.8	0.72	-0.8	8.4	11.2	0.1	-0.3	-1.3	i
#18 O=C1/C(=C/c2cccc(O)c2)SC(=S)N1CC1CCCO1 (stereo unspecified)
 : -2.8	0.68	2.0	-0.7	3.2	-3.2	3.8	-0.2	i
#19 O=C(c1ccc(Cl)c(S(=O)(=O)N2CCCCCC2)c1)N1CCCC(C(F)(F)F)C1 (stereo unspecified)
 : -2.7	0.663	2.9	-12.7	-36.0	-4.2	2.3	-3.6	i
#20 CCOC(=O)c1ccc(-c2cccc(-c3cc(=O)oc4cc(OC)cc(OC)c34)c2)cc1
 : -0.1	0.735	1.7	x	x	x	-2.4	x	x
#21 CCCCN(C(=O)c1[nH]c(C)c(C(=O)OCC)c1C)c1c(N)n(CCCC)c(=O)[nH]c1=O
 : 0.3	0.638	2.6	1.7	4.3	-0.1	-4.7	-6.7	i
#22 COc1cccc(C#CC2=CC(=O)C[C@H](c3ccc(F)cc3)C2)c1
 : x	x	3.3	1.4	-3.4	2.8	x	x	i
#23 O=C(CN1CCN(Cc2cccc(Cl)c2)C1=O)NCC1CCCO1 (stereo unspecified)
 : -2.5	0.682	-3.2	8.6	13.2	0.6	-1.5	x	i
#24 CCn1c(CC(=O)Nc2ccccc2F)nnc1SCC(=O)NC1CCCCC1
 : 15.3	0.596	-1.1	5.4	9.3	4.0	2.9	x	i
#25 CCC1CCCCN1CCNS(=O)(=O)c1ccc2c(c1)CCN2C(C)=O (stereo unspecified)
 : -4.3	0.683	2.5	x	x	x	-2.6	-4.0	x
#26 Cc1ccccc1C(=O)Nc1c(C(=O)N2CCCC2)cnn1-c1ccccc1
 : -4.9	0.631	3.7	8.6	1.6	0.8	1.4	-16.2	i
#27 Brc1ccc(-c2nn[nH]n2)cc1
 : -1.3	0.684	-2.3	3.0	4.6	8.5	3.0	3.9	i
#28 S=C(NCc1ccco1)N1CCN(C(c2ccccc2)c2ccccc2)CC1
 : 1.3	0.755	0.8	-3.4	-6.1	-10.6	1.0	-2.7	i
#29 CCOc1ncccc1C(=O)Nc1c(C)n(C)n(-c2ccccc2)c1=O
 : -6.2	0.663	3.9	5.7	0.5	-0.8	3.6	0.7	i
#30 CCN(CC(=O)Nc1c(F)cccc1F)C(=O)CCOc1ccccc1
 : 0.3	0.668	-0.1	4.3	4.3	-0.8	0.3	-1.8	x

Other compounds.
Sequence of screens: Beta2AR agonist	Ecoli growth	HNF4A DNA FP	Ecoli rRNA inh	Ecoli rRNA inh OD600	Ecoli rRNA inh RFP	UCH37 inh	ALR H2O2 inh	FGF22 binding
#31 Cc1ccc(S(=O)(=O)N2CCC(C(=O)OCC(=O)N(Cc3ccccc3)C(C)(C)C)CC2)cc1C
 : 10.6	0.705	-2.8	6.4	5.6	-2.0	0.9	x	i
#32 CC(=O)NC1CC2CCCC(C1)N2CC(=O)Nc1ccccc1 (stereo unspecified)
 : -2.9	0.696	1.6	x	x	x	-0.8	-9.7	x
#33 CCCNC(=O)Cn1c(=O)n(CC(=O)N2CCCCC2)c(=O)c2sccc21
 : 8.0	0.635	3.2	4.4	8.7	-1.1	1.0	-1.4	i
#34 O=Cc1cn(CCC(=O)O)nc1-c1cccc(Cl)c1
 : 1.9	0.699	-1.2	19.1	13.7	-1.6	1.9	54.7	i
#35 O=C(CC(=O)Nc1cccc(Cl)c1)N/N=C\c1ccccc1
 : -4.0	x	-1.6	7.6	8.2	-1.8	x	-6.1	i
#36 CCCc1cc(C(=O)Nc2ccc(C)cc2)no1
 : -10.3	0.796	-1.7	0.5	-2.5	-1.3	8.0	-1.0	i
#37 CC(=O)C1=C(C)OC(N)=C(C#N)C1c1cccc2ccccc12 (stereo unspecified)
 : 6.8	0.693	-6.1	-8.5	-16.6	3.8	3.3	-15.9	i
#38 CN(C)S(=O)(=O)c1ccc(C(=O)OCCN=C2NS(=O)(=O)c3ccccc32)cc1
 : -6.5	0.692	6.6	3.2	-7.5	-3.1	3.0	-25.1	i
#39 COc1ccc(N2CCN(C(=O)COC(=O)Cc3ccc(F)cc3)CC2)cc1
 : 1.5	0.62	2.1	2.2	-0.3	-1.9	-0.9	x	x
#40 COC(=O)C12CCC3(SCCS3)C(C(=O)OC)(CCC13SCCS3)C2
 : 6.4	0.637	-2.4	-3.6	-6.5	0.4	3.7	-2.0	i
#41 COc1ccc(N2CCN(c3ccc(N4C(=O)CC(C)C4=O)cc3[N+](=O)[O-])CC2)cc1 (stereo unspecified)
 : -11.0	0.689	-5.3	-28.9*	-17.6*	-0.6*	3.8	37.4	i
#42 CC1CN(S(=O)(=O)c2cccc(C(=O)OC/C(O)=C(\C#N)c3nc4ccccc4[nH]3)c2)CC(C)O1 (stereo unspecified)
 : 18.2	0.766	12.8	20.6	12.6	-0.5	-0.4	-17.6	i
#43 O=C(Cc1ccccc1)c1ccc(O)cc1O
 : 1.8	x	0.1	-21.2	-30.9	-3.5	x	x	i
#44 CCCOC(=O)CCCN1C(=O)/C(=C2\SC(=S)N(CCCC(=O)OCCC)C2=O)SC1=S
 : 8.9	0.69	-2.6	x	x	x	11.3	-21.1	i
#45 O=C(Nc1ccccc1N1CCOCC1)C1CCN(S(=O)(=O)c2ccccc2F)CC1
 : 2.5	0.625	-1.9	x	x	x	0.4	-0.1	x
#46 COC(=O)c1nn(-c2cccc(Cl)c2)ccc1=O
 : 0.1	0.693	-0.3	16.0	6.7	0.7	1.5	-9.9	i
#47 COc1ccccc1NC(=O)CC1C(=O)Nc2ccccc2N1C(=O)c1ccccc1 (stereo unspecified)
 : -6.2	0.688	-1.0	0.0	-3.5	1.2	2.6	-0.5	i
#48 CNC(=O)n1ccc(C(=O)N2CCCCC2)n1
 : -14.4	0.696	2.4	x	x	x	-1.5	-0.6	x
#49 Cc1c(Cl)cccc1NC(=S)NC1CCN(C(C)C)CC1
 : -5.0	0.677	4.9	16.6	9.2	1.8	3.8	x	i
#50 CC(=O)C1=CCC(c2ccc(C)cc2)N(S(=O)(=O)c2ccc(Cl)cc2)C1 (stereo unspecified)
 : x	x	-3.7	-2.4	-31.1	-9.5	x	x	i
#51 Cc1ccc(OCCNC(=O)CCc2ccccc2)cc1C
 : 4.7	0.679	-0.1	3.1	1.6	3.0	4.1	-3.1	i
#52 COC(=O)CSc1nnc(C)n1-c1cccc(OC)c1
 : 11.7	0.72	-2.6	x	x	x	3.0	x	x
#53 Cc1ccc(S(=O)(=O)Nc2cc(=O)[nH]c(SCC(=O)Nc3ccccc3Cl)n2)cc1
 : -3.2	0.728	-1.9	7.0	5.0	-0.4	0.7	x	i
#54 Cc1ccc(OCC(=O)N/N=C2\CC(=O)CC(C)(C)C2)c(Br)c1
 : -0.2	x	1.0	11.9	-0.2	21.8	x	53.4	i
#55 Cc1noc(C)c1C(=O)OCC(=O)Nc1ncc(C(F)(F)F)cc1Cl
 : -8.7	0.696	1.5	5.2	8.5	-0.5	-1.4	-0.8	i
#56 Cc1ccc(S(=O)(=O)Nc2c(C)n(C)n(-c3ccccc3)c2=O)cc1C(=O)OCC(=O)N1CCCC(C)C1 (stereo unspecified)
 : -5.2	0.674	1.2	8.1	0.0	1.8	-1.1	0.2	i
#57 CCOC(=O)c1cn(CC)c2cc(N3CCSCC3)c(F)cc2c1=O
 : 0.8	0.465*	-0.5	x	x	x	-44.7	98.8*	x
#58 COc1cc(NC(=O)C2CCN(S(=O)(=O)c3ccc4[nH]c(=O)oc4c3)CC2)cc(OC)c1
 : 1.1	0.714	1.5	-0.4	-6.4	1.9	2.7	-39.1	i
#59 Cc1ccc(CN2C(=O)C(C)Nc3ncnc(N4CCOCC4)c32)cc1 (stereo unspecified)
 : -2.6	0.695	6.0	13.2	6.4	-0.7	1.7	1.7	i
#60 O=C(CCCCCNc1nc(=S)[nH]c2ccccc12)NCCc1ccccc1
 : 4.0	0.723	-1.4	x	x	x	0.1	-4.3	x
#61 CCOc1cc(C(=S)N2CCN(C)CC2)ccc1OCC(=O)N1CCCC1
 : -3.3	0.707	-3.1	15.8	11.4	4.0	1.2	3.6	i
#62 O=C(Nc1cccc(Cl)c1)NC1(C(=O)NCc2cccs2)CCCCC1
 : 4.1	0.699	1.1	7.2	-4.7	-0.3	1.4	6.9	i
#63 Cc1ccccc1C(=O)NNC(=O)C(C)N1C(=O)c2ccccc2C1=O (stereo unspecified)
 : -6.9	0.676	-0.9	17.2	8.7	7.0	3.7	-7.4	i

Only part of the results is shown; count on the stated rates, not on these rows.
